# RGS4 act = RGS4 potentiators or activators, primary screen, cell-based, HEK293 M3R inducible RGS4, calcium flux; carbachol calcium flux Fluo4; hits give low values; B-score at 10 µM; actives 0.92% (n = 310,000);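 active means B-score of the integrated calcium signal more than 4 SD below the library mean, with starting fluorescence not abnormally high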;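 further: negative B-score means reduced calcium response which marks RGS4 activation or potentiation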
#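 System: HEK293 FlpIn-TREx cells, stable M3R, doxycycline-inducible RGS4. Timing: overnight RGS4 induction, 30 min dye load 37 °C, 20 min compound RT. Also added: carbachol, ECmax concentration. Measured by: Fluo4 fluorescence kinetic imaging of calcium. Evaluation: integrated calcium ratio converted to B score.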
# KCNQ1 pot = potentiators or activators of KCNQ1 channel, primary screen, cell-based, thallium flux, high-throughput | B-score at 10 µM | CHO-K1 KCNQ1, thallium flux FluxOR fluorescence; hits give high values | Potassium voltage-gated channel subfamily KQT member 1 (Homo sapiens), P51787 | actives 0.35% (n = 310,000);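 active means fluorescence ratio B-score, a plate-corrected score, at least three library SD, with initial intensity B-score within 5 SD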
#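 Assay system: CHO-K1 cells stably expressing KCNQ1; Medium: assay buffer with matched DMSO; Also added: K+/Tl+ depolarizing stimulus; Dosing: single dose; Timing: dye 90 min, compound 20 min, room temperature; Measured by: kinetic FluxOR thallium fluorescence, 10-s 1-Hz baseline, 110-s post-stimulus read; Read-out: peak-minus-minimum fluorescence over initial fluorescence, negative-control normalized, B-scored.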
# ANO1 activ = TMEM16A chloride channel activators or potentiators, primary screen, cell-based, HTS | Anoctamin-1 (Mus musculus), Q8BHY3 | HEK293 TMEM16A/YFP-H148Q/I152L, iodide quench fluorescence; hits give low values | B-score at 10 µM | actives 0.3% (n = 340,000);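 active means fluorescence-ratio B-score plate-corrected deviation score at least 3 library SD below zero, with starting fluorescence score within 5 deviations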;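 further: channel opened by trigger with iodide after compound preincubation; score built on the fluorescence ratio of max minus min over baseline; more negative score means more quench and so TMEM16A activation or potentiation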
# HDAC3 inhib = HDAC3 deacetylase inhibitors, primary screen, biochemical, fluorescence, cell-free homogeneous | actives 0.15% (n = 320,000) | Histone deacetylase 3 (Homo sapiens), O15379 | AID 2718, 2010 | recombinant HDAC3, fluorogenic peptide/trypsin coupled | inhibition, % at 8.3 µM; in the data active means inhibition above about 26%, passing the limit was not always enough
# Target sequence (O15379 whole entry, looked up): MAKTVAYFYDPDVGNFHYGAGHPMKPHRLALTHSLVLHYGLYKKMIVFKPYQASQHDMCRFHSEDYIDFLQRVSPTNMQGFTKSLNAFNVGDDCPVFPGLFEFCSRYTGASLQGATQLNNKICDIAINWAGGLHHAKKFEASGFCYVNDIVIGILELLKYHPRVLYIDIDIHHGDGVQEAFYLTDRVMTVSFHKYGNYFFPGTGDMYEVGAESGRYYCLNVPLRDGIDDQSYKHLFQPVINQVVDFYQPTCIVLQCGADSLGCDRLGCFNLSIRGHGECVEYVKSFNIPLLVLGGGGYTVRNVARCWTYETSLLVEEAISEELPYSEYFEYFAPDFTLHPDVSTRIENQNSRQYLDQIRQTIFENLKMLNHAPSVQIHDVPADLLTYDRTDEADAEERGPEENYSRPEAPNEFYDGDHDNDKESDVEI
# ANO1 block = TMEM16A chloride channel inhibitors, primary screen, cell-based, HTS; actives 1.2% (n = 310,000); AID 588511, 2011; Anoctamin-1 (Mus musculus), Q8BHY3; normalized B-score (activity score, 25-100; higher = stronger inhibition) at 10 µM; HEK293 TMEM16A/YFP iodide influx fluorescence, ionomycin;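 active means ratio plate-corrected score three or more library SD toward inhibition, starting fluorescence score within five deviations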;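 further: score derived from kinetic fluorescence span divided by baseline fluorescence per well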
# KCNQ1 inh = inhibitors of human KCNQ1 channel, primary screen, cell-based, thallium flux, high-throughput; Potassium voltage-gated channel subfamily KQT member 1 (Homo sapiens), P51787; CHO-K1 KCNQ1, FluxOR thallium flux fluorescence; hits give high values; actives 1.3% (n = 310,000); B-score at 10 µM;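 active means compounds whose thallium flux B-score, printed positive for inhibition, exceeds three library SD while starting fluorescence stays within three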;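 further: channel opened by potassium depolarization with thallium stimulus after 20 min compound exposure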
# * hit, by the source's call; i = inactive; nt = no result given. Some of the compounds tested. The share of hits here may be higher or lower than overall.
# Order of values – RGS4 act, KCNQ1 pot, ANO1 activ, HDAC3 inhib, ANO1 block, KCNQ1 inh
1: CC(C)(C)n1nnnc1C(c1ccc(C#N)cc1)N1CCCC2(CCCCC2)C1 (stereo unspecified)
→ i, i, i, -1, i, i
2: Cc1ccc(S(=O)(=O)N(CC(=O)O)Cc2ccccc2)cc1
→ i, i, i, -1, i, i
3: Cc1cc(C)c(/C=C2\C(=O)Nc3ccccc32)[nH]1
→ i, i, i, -2, i, i
4: CC12CCC(=O)C=C1CCC1C2C(=O)CC2(C)C1CCC2(O)C(=O)CO (stereo unspecified)
→ i, i, i, 2, i, i
5: Brc1cccc(-c2nc3cccnc3nc2-c2cccc(Br)c2)c1
→ -7*, i, i, 3, i, i
6: CN1CCN(C(=O)c2ccc(NS(=O)(=O)c3ccccc3)cc2)CC1
→ i, i, i, 4, i, i
7: Cc1cccc(-c2cccc(NC(=O)C3CCCN(Cc4cccnc4)C3)c2)c1 (stereo unspecified)
→ i, i, i, -3, i, i
8: C=C1/C(=C\C=C2/CCC[C@]3(C)[C@@H]([C@H](C)CCCC(C)(C)O)CC[C@@H]23)C[C@@H](O)C[C@@H]1O
→ i, i, nt, -1, 100*, 7*
9: Fc1ccc(C(c2ccc(F)cc2)N2CCN(C/C=C/c3ccccc3)CC2)cc1
→ i, i, i, 2, i, 8*
10: Cc1ccc(NC(=O)c2sccc2SCc2cccc(C(F)(F)F)c2)cc1
→ i, i, i, -6, i, 10*
11: NS(=O)(=O)c1ccc(NC(=O)Nc2ccc(Cl)cc2)cc1
→ i, i, i, 1, i, i
12: COc1cc2c(cc1NC(=O)c1cccc(Br)c1)CCCC2
→ i, i, nt, 3, i, i
13: Cc1ccc(S(=O)(=O)n2c(C)nc3ccccc32)cc1
→ i, i, i, -3, i, i
14: O=C(N/N=C/c1ccc(Sc2ccccn2)o1)c1cccc([N+](=O)[O-])c1
→ i, i, i, 12, i, i
15: CC(=O)CCc1oc2ccc([N+](=O)[O-])cc2c1-c1ccc(C)o1
→ i, i, i, 7, i, i
16: Clc1ccc(COn2c(-c3ccccc3)nc3ccccc32)cc1
→ i, i, i, 6, i, i
17: CC[C@H]1CN2CCc3cc(OC)c(OC)cc3[C@@H]2C[C@@H]1C[C@H]1NCCc2cc(OC)c(OC)cc21
→ i, i, i, 3, i, i
18: COc1ccc(OC)c(CCNC(=O)c2ccc3c(c2)N(Cc2ccccc2)CCS3)c1
→ i, i, i, 0, i, i
19: COc1cccc(C(=O)Nc2cccc(NC(=O)c3cccs3)c2)c1
→ i, i, i, 3, i, i
20: CC12CCC(=O)C=C1CCC1C2C(=O)CC2(C)C1CC[C@]2(O)C(=O)CO (stereo partly specified)
→ i, i, i, -1, i, i
21: COc1cccc(C(=O)Nc2cc3c(cc2N2CCOCC2)n(C)c(=O)n3C)c1
→ i, i, i, -1, i, i
22: O=C(/C=C/C=C/c1ccc2c(c1)OCO2)N1CCCCC1
→ nt, nt, i, 6, i, nt
23: Cc1ccc(NC(=O)c2ccc(CN3CCN(C)CC3)cc2)cc1Nc1nccc(-c2cccnc2)n1
→ i, i, i, 3, i, i
24: COCc1cc(C)nc(SCC(=O)c2ccc(O)c(O)c2)c1C#N
→ i, i, i, 0, i, i

# Six structures from above, sorted by length of the SMILES, rising:
# Order of values – RGS4 act, KCNQ1 pot, ANO1 activ, HDAC3 inhib, ANO1 block, KCNQ1 inh
22: O=C(/C=C/C=C/c1ccc2c(c1)OCO2)N1CCCCC1
→ nt, nt, i, 6, i, nt
16: Clc1ccc(COn2c(-c3ccccc3)nc3ccccc32)cc1
→ i, i, i, 6, i, i
19: COc1cccc(C(=O)Nc2cccc(NC(=O)c3cccs3)c2)c1
→ i, i, i, 3, i, i
21: COc1cccc(C(=O)Nc2cc3c(cc2N2CCOCC2)n(C)c(=O)n3C)c1
→ i, i, i, -1, i, i
20: CC12CCC(=O)C=C1CCC1C2C(=O)CC2(C)C1CC[C@]2(O)C(=O)CO (stereo partly specified)
→ i, i, i, -1, i, i
17: CC[C@H]1CN2CCc3cc(OC)c(OC)cc3[C@@H]2C[C@@H]1C[C@H]1NCCc2cc(OC)c(OC)cc21
→ i, i, i, 3, i, i

# Some entries already given, showing only KCNQ1 pot and ANO1 activ:
no. | SMILES | KCNQ1 pot | ANO1 activ
17 | CC[C@H]1CN2CCc3cc(OC)c(OC)cc3[C@@H]2C[C@@H]1C[C@H]1NCCc2cc(OC)c(OC)cc21 | i | i
18 | COc1ccc(OC)c(CCNC(=O)c2ccc3c(c2)N(Cc2ccccc2)CCS3)c1 | i | i

# Source: PubChem (several laboratories)
